Screening results as filed in PubChem.
PKD1 inh: inhibitors of human PKD1 kinase, biochemical, fluorescence polarization; Serine/threonine-protein kinase D1 (Homo sapiens), Q15139; PKD1 kinase fluorescence polarization assay; inhibition, %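 (about 10 µM by stock and volumes)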; 200,000 tested, 0.056% active; AID 797, 2007;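 active means inhibition of 50% or more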;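 further: controls were vehicle for no effect and a reference inhibitor for full effect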
RGS16-Gao HTS: modulators of RGS16 binding to Galphao, primary screen, biochemical, human proteins, multiplexed bead flow cytometry. bead-based flow cytometry RGS16-Galphao binding, fluorescence; actives lie on both sides. binding response (% of control), % at 10 µM. 220,000 tested, 0.38% active;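 active means below 25% or above 175%, edge rows of some plates excepted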;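 further: Galphao activated by GDP with aluminum fluoride before binding; 100% = wells without compound and 0% = beads without RGS; some results beyond the cut were filed as inactive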
Target sequence (O15492 whole entry, looked up): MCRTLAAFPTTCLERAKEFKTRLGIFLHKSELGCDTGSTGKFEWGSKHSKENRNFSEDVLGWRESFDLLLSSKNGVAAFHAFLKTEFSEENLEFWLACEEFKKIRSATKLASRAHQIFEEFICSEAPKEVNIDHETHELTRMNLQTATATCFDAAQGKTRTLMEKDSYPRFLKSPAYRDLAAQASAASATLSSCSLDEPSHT
Target sequence (P09471 whole entry, looked up): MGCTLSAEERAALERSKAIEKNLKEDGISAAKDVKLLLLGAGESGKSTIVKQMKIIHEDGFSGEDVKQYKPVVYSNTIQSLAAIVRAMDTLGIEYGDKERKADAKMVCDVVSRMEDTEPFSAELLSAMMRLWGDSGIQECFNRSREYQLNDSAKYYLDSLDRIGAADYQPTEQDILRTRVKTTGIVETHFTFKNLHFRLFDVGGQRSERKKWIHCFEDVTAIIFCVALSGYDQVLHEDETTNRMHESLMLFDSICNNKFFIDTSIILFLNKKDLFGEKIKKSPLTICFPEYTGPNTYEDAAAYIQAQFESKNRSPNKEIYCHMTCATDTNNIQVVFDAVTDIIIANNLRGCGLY
HSV augment: enhancers of HSV replication in host cells, fold increase, host cell viability; AID 1956, 2009; 220,000 tested, 0.005% active; maximum fold increase; HSV replication augmentation in cells;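 active means peak rise of 1.5-fold or more in the series; inconclusive means self-fluorescent or not available for retest; tested in PC3 cells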;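 further: first round at 10 µM; read as green reporter fluorescence; hits show the peak of a series up to 25 µM; 1 = signal of infected wells without compound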
Insulin prom inh: inhibitors of insulin promoter-driven GFP, primary screen, imaging, TRM-6 cells (human fetal islet line), eGFP reporter, cell count | reporter expression induced with tamoxifen | inhibition, % at 2 µM | 130,000 tested, 0.9% active | AID 1273, 2008;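 active means inhibition above the mean plus 3 SD, with well images judged a real hit on visual review, cut at about 60% in these data, passing the limit was not always enough; inconclusive means inhibition over the cutoff but images rejected on review; inactive means inhibition not above the cutoff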
GALR2 agonist: GALR2 receptor agonists, primary screen, cell-based | Galanin receptor type 2 (Homo sapiens), O43603 | GALR2-expressing cells, agonist activation read-out | activation, %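 (tested at 5 µM)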 | 140,000 tested, 0.48% active | AID 803, 2007;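 active means above mean plus 3 SD of all compounds, about 5% in these data, not always enough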;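 further: 0% = vehicle buffer wells and 100% = reference agonist at full effect; tested in CHO reporter cells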
Target sequence (O43603 whole entry, looked up): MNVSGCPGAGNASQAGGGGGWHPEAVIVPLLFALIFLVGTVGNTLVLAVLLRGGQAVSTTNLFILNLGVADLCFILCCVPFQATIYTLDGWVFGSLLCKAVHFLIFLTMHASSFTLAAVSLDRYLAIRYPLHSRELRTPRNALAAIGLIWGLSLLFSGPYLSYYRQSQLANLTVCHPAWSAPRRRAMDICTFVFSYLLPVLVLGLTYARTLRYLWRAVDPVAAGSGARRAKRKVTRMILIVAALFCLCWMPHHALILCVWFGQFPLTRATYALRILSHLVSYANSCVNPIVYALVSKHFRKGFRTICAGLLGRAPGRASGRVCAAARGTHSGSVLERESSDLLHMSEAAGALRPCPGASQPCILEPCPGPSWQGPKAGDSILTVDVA
Insulin prom inh cell count: second read-out of Insulin prom inh, no call of its own (marks repeat the call); normalized cell count, %; measured here: cell count, toxicity; reference of the scale not given here;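 cells exposed to compound for 48 h; stained nuclei by imaging scaled within each plate; lower means fewer cells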
HSV augment primary fold: recorded beside HSV augment, whose call it bears; fold increase; compound at 10 µM; measured here: primary screen fold increase 10 uM; tested in PC3 cells;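 GFP signal in the first replicate; 1 = infected wells without compound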
* hit, by the source's call; i = inactive; ? = inconclusive; . = no result given.

Assay codes – A = PKD1 inh; B = RGS16-Gao HTS; C = HSV augment; D = HSV augment primary fold; E = Insulin prom inh; F = Insulin prom inh cell count; G = GALR2 agonist
CCn1c(SCC(=O)c2ccccc2)nnc1-c1cccs1
  A: -5	B: 105	C: i	D: 0.76	E: 51	F: 169	G: -1.2

COc1ccc(-c2nc(S(=O)(=O)c3ccc(C)cc3)c(N3CCCC3)o2)cc1
  A: -5	B: 96	C: i	D: 1.1	E: 44	F: 145	G: -1.2

COc1cc(C2NC(=S)NC(C)=C2C(=O)Nc2cc(C)cc(C)c2)ccc1O (stereo unspecified)
  A: .	B: 100	C: i	D: 0.95	E: .	F: .	G: .

CCOc1ccccc1NC(=O)Cc1coc2cc(C)ccc12
  A: -4	B: 104	C: i	D: 1.2	E: -3	F: 112	G: -2.9

CCOc1ncccc1C(=O)Nc1nc(SC)ns1
  A: -3	B: 99	C: i	D: 0.98	E: .	F: .	G: .

Cc1ccc(N=c2oc3cc(O)ccc3cc2C(N)=O)cc1
  A: 1	B: 98	C: i	D: 0.91	E: .	F: .	G: 42*

O=C(Nc1ccc(S(=O)(=O)Nc2ccc(Cl)cc2)cc1)C1CCCO1 (stereo unspecified)
  A: -16	B: 97	C: i	D: 0.95	E: -80	F: 61	G: -2.2

Cc1ccc(N2CC(C(=O)Oc3cccc(N4C(=O)CCC4=O)c3)CC2=O)cc1 (stereo unspecified)
  A: -6	B: 104	C: i	D: 0.94	E: -60	F: 97	G: -0.8

CCOc1c(Br)cc(C(N)=O)cc1OC
  A: -14	B: 103	C: i	D: 0.95	E: .	F: .	G: -2.7

OCCNC(=S)Nc1ccc2nsnc2c1
  A: 6	B: 109	C: i	D: 0.93	E: 47	F: 80	G: .

CCOc1ccc(C(=O)NN2C(=O)C3C4C=CC(O4)C3C2=O)cc1 (stereo unspecified)
  A: -6	B: 102	C: i	D: 1	E: -29	F: 93	G: -1.0

Cc1ccccc1NC(=O)CSc1ccc(-c2ccco2)nn1
  A: -6	B: 98	C: i	D: 0.97	E: .	F: .	G: -0.7

CCCNC(=O)CSc1nc2ccc(OCC)cc2s1
  A: -6	B: 102	C: i	D: 0.98	E: -50	F: 115	G: .

CCOc1ccc(NC(=O)c2cnc3scc(C)n3c2=O)cc1
  A: 8	B: .	C: i	D: 0.92	E: .	F: .	G: -0.6

CCOc1ccc(C(=O)NC(=S)Nc2cccnc2)cc1
  A: 7	B: 103	C: i	D: 1.2	E: 17	F: 117	G: 0.0

Cc1ccc(C)c2[nH]c(=O)c(CN(CCCN(C)C)C(=O)NCc3ccccc3)cc12
  A: .	B: 103	C: i	D: 0.96	E: .	F: .	G: .

COc1ccc(C(=O)CCC(=O)O)c(C)c1
  A: 0	B: 107	C: i	D: 0.83	E: 31	F: 128	G: -2.1

CCOC(=O)/C(=N\Nc1cccc(C(F)(F)F)c1)N(CCOC)CCOC
  A: -6	B: 95	C: i	D: 0.88	E: .	F: .	G: -0.5

O=C(/C=C/c1ccccc1)C1=C(O)C(=O)N(CCO)C1c1cccc([N+](=O)[O-])c1 (stereo unspecified)
  A: .	B: 104	C: i	D: 1	E: .	F: .	G: .

CCn1cc(C(=O)O)c(=O)c2cnc(N3CCN(C(=O)Nc4ccccc4)CC3)nc21
  A: 1	B: .	C: .	D: .	E: 54	F: 18	G: -0.8

O=S(=O)(Nc1ccc2c(c1)nc1n2CCN(Cc2ccccc2)C1)c1ccc(Cl)cc1
  A: 14	B: 100	C: i	D: 0.96	E: .	F: .	G: -1.9

CCc1ccc(C2=NNC(=Nc3cccc(S(=O)(=O)N(C)C)c3)SC2)cc1
  A: 2	B: 98	C: i	D: 0.56	E: -117	F: 82	G: -0.6

Cc1[nH]c2ccc3c(ncn3CCC#N)c2c1C
  A: 5	B: 102	C: i	D: 0.71	E: 11	F: 69	G: -0.1

CN(c1ccccc1)S(=O)(=O)c1ccc(NC(=O)c2ccco2)cc1
  A: -6	B: 94	C: i	D: 0.91	E: -22	F: 92	G: .

O=C(Nc1ccccc1C(=O)O)c1ncn[nH]1
  A: -11	B: 102	C: i	D: 1	E: -39	F: 91	G: -3.3

COc1ccc(-c2noc(-c3ccccc3-c3ccccc3)n2)cc1
  A: -5	B: 103	C: i	D: 0.98	E: -26	F: 197	G: -1.2

CCOc1ccc(/C=N/OCC(=O)Nc2ccc3c(c2)OCO3)cc1
  A: -7	B: 104	C: i	D: 0.98	E: .	F: .	G: .

CCOc1ccc(OCCSc2nc3ccccc3o2)cc1
  A: 2	B: 106	C: i	D: 0.87	E: 43	F: 86	G: -1.3

COc1ccc(Oc2cc(C(F)(F)F)cnc2C(N)=O)cc1
  A: -4	B: 90	C: i	D: 1.1	E: .	F: .	G: -1.7

CC1(O)C(=O)c2ccccc2N(c2ccccc2)C1=O (stereo unspecified)
  A: -7	B: 42	C: i	D: 1	E: 44	F: 92	G: -1.3

COC(=O)C1=C(O)CSC1=Nc1cccc(C(F)(F)F)c1
  A: -9	B: 100	C: i	D: 1	E: -24	F: 108	G: -1.2

CCOc1ccc(-c2cc(C(=O)NCCCn3ccnc3)c3ccccc3n2)cc1
  A: 7	B: 104	C: i	D: 1	E: .	F: .	G: .

CCc1cccc(C)c1NC(=S)N(Cc1cccnc1)Cc1ccco1
  A: -7	B: 107	C: .	D: .	E: -85	F: 124	G: -1.5

Cc1ccc(C2CC(=O)C=C(O)C2)cc1 (stereo unspecified)
  A: -9	B: 101	C: i	D: 0.91	E: -38	F: 122	G: -3.9

O=Cc1c(Cl)[nH]c(=O)n1-c1ccccc1
  A: 2	B: 111	C: i	D: 1	E: -40	F: 79	G: .

O=C(NCCCN1CCOCC1)C(=O)NCc1ccc(Cl)cc1
  A: -8	B: 99	C: i	D: 0.95	E: -21	F: 108	G: .

N/C(=N\OC(=O)COc1ccc(Cl)cc1Cl)c1cccnc1
  A: 5	B: 98	C: .	D: .	E: 33	F: 125	G: -0.4

O=C(c1ccc(Cl)cc1)c1ccc(OCC(O)CN2CCCCC2)cc1 (stereo unspecified)
  A: 1	B: 103	C: i	D: 0.79	E: -30	F: 84	G: -2.4

Cn1c(COc2ccccc2)nnc1SCC(=O)Nc1ccc(S(N)(=O)=O)cc1
  A: -5	B: .	C: i	D: 0.93	E: -19	F: 78	G: -0.7

Cc1ccc(N2CCN(C(=O)N3CCOCC3)CC2)c(C)c1
  A: 6	B: 108	C: i	D: 0.99	E: 21	F: 52	G: .

COc1ccccc1NS(=O)(=O)c1ccc(N/N=C(\C)C(C)C)c([N+](=O)[O-])c1
  A: -4	B: 99	C: i	D: 0.9	E: 9	F: 133	G: -2.4

CN1CC(=O)N(CC(=O)N2N=C(c3ccc(Cl)cc3)CC2c2ccco2)C1=O (stereo unspecified)
  A: 2	B: 93	C: i	D: 1.1	E: -18	F: 136	G: .

O=C1C2ON(c3ccc(Br)cc3)C(c3cccnc3)C2C(=O)N1C1CCCCC1 (stereo unspecified)
  A: -6	B: 96	C: .	D: .	E: -81	F: 25	G: -1.6

Cc1ccc(C2CC(c3ccccc3)=NN2C(=O)CSc2nnc(-c3ccncc3)n2C)o1 (stereo unspecified)
  A: 10	B: 63	C: i	D: 0.97	E: -27	F: 108	G: 0.0

CCCCOc1ccc(OC(=O)Nc2cc(Cl)ccc2OC)cc1
  A: .	B: 104	C: i	D: 0.79	E: .	F: .	G: .

O=C1/C(=C\c2ccc(Br)o2)SC(=Nc2ccccc2)N1c1ccccc1
  A: 6	B: 103	C: i	D: 1	E: -26	F: 67	G: -1.3

Cc1cc(S(=O)(=O)NCC(=O)O)ccc1F
  A: -7	B: 75	C: i	D: 0.97	E: 21	F: 54	G: -0.1

COc1ccc(S(=O)(=O)N2CCC(C(=O)N3CCc4ccccc4C3)CC2)cc1
  A: -1	B: 106	C: i	D: 0.95	E: .	F: .	G: -0.4

O=C(O)C1C2CCCCC2=C2CCCCC2C1C(=O)c1ccccc1 (stereo unspecified)
  A: .	B: 96	C: i	D: 0.97	E: .	F: .	G: .

Cc1cc2ccccc2c(=O)[nH]1
  A: -10	B: 109	C: i	D: 0.79	E: 25	F: 69	G: -1.3

Exported as labelled records: 3 of the compounds above
O=C(c1ccc(Cl)cc1)c1ccc(OCC(O)CN2CCCCC2)cc1 (stereo unspecified)
  PKD1 inh: 1
  RGS16-Gao HTS: 103
  HSV augment: i
  HSV augment primary fold: 0.79
  Insulin prom inh: -30
  Insulin prom inh cell count: 84
  GALR2 agonist: -2.4
Cn1c(COc2ccccc2)nnc1SCC(=O)Nc1ccc(S(N)(=O)=O)cc1
  PKD1 inh: -5
  RGS16-Gao HTS: .
  HSV augment: i
  HSV augment primary fold: 0.93
  Insulin prom inh: -19
  Insulin prom inh cell count: 78
  GALR2 agonist: -0.7
Cc1ccc(N2CCN(C(=O)N3CCOCC3)CC2)c(C)c1
  PKD1 inh: 6
  RGS16-Gao HTS: 108
  HSV augment: i
  HSV augment primary fold: 0.99
  Insulin prom inh: 21
  Insulin prom inh cell count: 52
  GALR2 agonist: .

Next part
Assay codes – A = PKD1 inh; B = RGS16-Gao HTS; C = HSV augment; D = HSV augment primary fold; E = Insulin prom inh; F = Insulin prom inh cell count; G = GALR2 agonist
O=C(c1cccc(Cl)c1)N1CCCC(C(=O)N2CCCCCC2)C1 (stereo unspecified)
  A: -5	B: 103	C: i	D: 0.87	E: -53	F: 180	G: -0.8

CCCCN(C(=S)NC(=O)c1cc(OC)c(OC)c(OC)c1)c1c(N)n(Cc2ccccc2)c(=O)[nH]c1=O
  A: 2	B: 98	C: i	D: 0.99	E: 18	F: 104	G: -0.7

CCCCNC(=S)NNC(=O)c1nn(C)cc1Cl
  A: 5	B: 96	C: i	D: 1.1	E: -6	F: 95	G: 0.5

Cc1cc(=O)[nH]c(SCC(=O)Nc2nc(-c3ccccc3)cs2)n1
  A: -1	B: 97	C: .	D: .	E: .	F: .	G: -1.2

O=C(C1CCN(S(=O)(=O)c2cccc3cccnc23)CC1)N1CCN(c2ccccc2)CC1
  A: -8	B: 189	C: i	D: 0.92	E: -10	F: 148	G: -0.2

COc1cc(/C=C/C(=O)C2C(=O)C=C(C)OC2=O)cc(OC)c1O (stereo unspecified)
  A: -2	B: 102	C: ?	D: .	E: -35	F: 122	G: -1.3

c1ccc(-c2nnc3sc(-c4ccncc4)nn23)cc1
  A: -3	B: 76	C: i	D: 0.91	E: -197	F: 149	G: 0.2

COc1ccccc1Nc1ccc([N+](=O)[O-])cn1
  A: 2	B: 106	C: i	D: 0.96	E: 56	F: 82	G: .

Cn1c(CCc2ccc(N)cc2)nc2ccccc21
  A: 7	B: 105	C: i	D: 1	E: 26	F: 118	G: .

Cc1ccc2c(c1)C1(OCCO1)C(=O)N2
  A: 6	B: 138	C: i	D: 0.97	E: 8	F: 84	G: 1.4

CC(C)N(c1ccccc1)c1ncnc(NCCC(=O)O)c1[N+](=O)[O-]
  A: -3	B: 97	C: i	D: 0.85	E: -4	F: 120	G: -0.8

CCCn1c(=N)c(C#N)cc2c(=O)n3cccc(C)c3nc21
  A: -4	B: 102	C: i	D: 0.89	E: 25	F: 138	G: .

COc1ccc(NC(=O)CSc2nnc(Cc3ccccc3)o2)c(OC)c1
  A: 1	B: 83	C: i	D: 0.99	E: -18	F: 125	G: -0.7

COC(=O)c1ccc(N=NNc2ccccc2)cc1
  A: 2	B: 108	C: i	D: 0.97	E: 0	F: 90	G: -0.8

CCOc1ccc(N=Cc2c(O)c3ccccc3oc2=O)cc1
  A: 4	B: 98	C: i	D: 1	E: 0	F: 161	G: 2.0

Cc1ccc(NC2=C(CC(=O)O)C(c3ccccc3)N(c3ccc(C)cc3)C2=O)cc1 (stereo unspecified)
  A: -4	B: 104	C: i	D: 0.88	E: -22	F: 155	G: -1.3

CCN1CN=C(NS(=O)(=O)c2ccc(C)cc2)NC1
  A: 0	B: 103	C: i	D: 0.91	E: -34	F: 157	G: -1.6

CCOCC(=O)Nc1ccc(C)c(Cl)c1
  A: -4	B: 104	C: i	D: 0.9	E: .	F: .	G: -3.6

COc1ccc(OC)c(C2=Nn3c(nnc3-c3ccco3)SC2)c1
  A: -5	B: 95	C: i	D: 0.83	E: .	F: .	G: -0.6

COc1ccc(/C=C/C(=O)c2ccc(O)cc2)cc1
  A: 10	B: 102	C: i	D: 0.68	E: .	F: .	G: .

Cc1ccc(NC(=O)/C(C#N)=C/c2ccsc2)c(C)c1
  A: -10	B: 113	C: i	D: 0.91	E: -8	F: 144	G: 0.6

Random draw from the library; about 1.1% have a hit in one of these screens.
